# Source: PubChem
# GIV-Gai inh – inhibitors of GIV peptide binding to Galpha-i3, primary screen, biochemical, fluorescence polarization, FITC-GIV GBA peptide, rat Galphai3; Guanine nucleotide-binding protein G(i) subunit alpha-3 (Rattus norvegicus), P08753; 90 min; stronger effect = lower value; scaled: aluminum fluoride 0%, vehicle 100%; percent of control (FP), % (test concentration not listed); 210,000 tested, 0.42% active; AID 1224905, 2016;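 active = replicate mean at 85% of control or lower, very high polarization wells dropped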;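 note: wells of about 15 µL received 100 nL stock; the first replicate is given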
# Target sequence (P08753 whole entry, looked up): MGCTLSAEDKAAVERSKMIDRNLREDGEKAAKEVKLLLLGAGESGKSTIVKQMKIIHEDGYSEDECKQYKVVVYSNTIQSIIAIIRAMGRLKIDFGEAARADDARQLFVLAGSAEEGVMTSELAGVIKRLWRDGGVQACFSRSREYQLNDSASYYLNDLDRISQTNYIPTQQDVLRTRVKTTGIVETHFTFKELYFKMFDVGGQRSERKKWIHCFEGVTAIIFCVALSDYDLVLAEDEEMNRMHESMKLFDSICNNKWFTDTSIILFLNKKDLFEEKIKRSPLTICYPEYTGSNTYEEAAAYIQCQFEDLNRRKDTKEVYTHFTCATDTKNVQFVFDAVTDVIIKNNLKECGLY
# HCMV NEC inh – inhibitors of HCMV UL50-UL53 interaction, biochemical, HTRF; HCMV UL50-UL53 nuclear egress complex (human cytomegalovirus); inhibition, % (no concentration beside the values); 190,000 tested, 0.15% active; normalized percent inhibition;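 active = both replicates at 50% or more, plus weaker picks with an unusually low signal ratio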;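 note: stock transfer was 100 nL into about 20 µL; 0% = negative control wells and 100% = wells with untagged competitor protein; inactives centre near -12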
# Sa growth inh – S. aureus growth inhibition at 42 and 30 °C, primary screen, LtaS inhibitor project, RN4220, two temperatures; OD600, 20 h, 42 °C; stronger effect = lower value; relative growth, % (no concentration beside the values); 170,000 tested, 0.53% active; AID 720641, 2013;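 active = growth at 42 °C up to 50% and 20 or more points under that at 30 °C, or under 10% at both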;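 note: 300 nL library stock went into each well; scaled to the means of positive and negative controls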
# Sa growth inh second temp – also measured in Sa growth inh; calls as there; relative growth, %; measured here: growth at 30 °C;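 optical density after 20 h as mean of two plates; 100% = untreated growth and lower means inhibition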
# Numbers without * were called inactive; / = no result given; & = joins results of further samples.
SMILES,GIV-Gai inh,HCMV NEC inh,Sa growth inh,Sa growth inh second temp
CCC(=O)c1cc(Cl)cc(Cl)c1O,/,-7,124,86
CC(=O)c1ccc(NC(=O)CC2Nc3cccc4cccc(c34)NC2=O)cc1 (configuration not stated),101,-18,103,82
Cc1nc(SCC(=O)N2c3ccccc3CCc3ccccc32)n[nH]1,110,10,96,84
Cc1ccc(CNC(=O)Cn2c(=O)n(CCCCC(=O)NC(C)C)c(=O)c3ccccc32)cc1,101,-29,/,/
COc1cccc(CN2COc3ccc4c(C)cc(=O)oc4c3C2)c1,109,-8,99,100
CCOc1ccc(NC(=O)CSC2=C(C#N)C(c3ccc([N+](=O)[O-])cc3)CC(=O)N2)cc1 (configuration not stated),101,-27,/,/
CCSc1nc2ccccc2s1,/,17,85,95
CNC(=O)N1CCc2cc(S(=O)(=O)Nc3ccc4c(c3)OCO4)ccc21,104,13,/,/
Cn1cc(S(=O)(=O)c2ccccc2)c(=O)c2cc(F)c(N3CCCC3)cc21,103,/,104,96
O=C(CSc1n[nH]c(=O)n1-c1ccccc1C(F)(F)F)c1ccc(F)cc1,103,-10,93,82

# In the list so far, three contain four or more nitrogen atoms.
SMILES,GIV-Gai inh,HCMV NEC inh,Sa growth inh,Sa growth inh second temp
Cc1nc(SCC(=O)N2c3ccccc3CCc3ccccc32)n[nH]1,110,10,96,84
Cc1ccc(CNC(=O)Cn2c(=O)n(CCCCC(=O)NC(C)C)c(=O)c3ccccc32)cc1,101,-29,/,/
CCOc1ccc(NC(=O)CSC2=C(C#N)C(c3ccc([N+](=O)[O-])cc3)CC(=O)N2)cc1 (configuration not stated),101,-27,/,/

# Following part
SMILES,GIV-Gai inh,HCMV NEC inh,Sa growth inh,Sa growth inh second temp
N#CCOC(=O)c1cccnc1SCC#N,/,-41,79,74
O=C(c1cnoc1)c1ccccc1O,/,-25,103,75
O=C(Nc1ccc2c(c1)OCCO2)c1cccc(Nc2ccnc(-c3cccc(F)c3)n2)c1,105,-13,/,/
NC1=NN(c2ccccc2)CC1,/,-31,77,35
O=C(CSc1c2c(nc3ccccc13)CCCC2)NC1CCCCC1,107,/,81,93
CNS(=O)(=O)c1cc(O)c2c(S(=O)(=O)NC)cccc2c1,105,-44,117,99
O=C1CN(C(=O)CSc2nnc(Cc3cccs3)n2CCc2ccccc2)c2ccccc2N1,/,0,83,95
COc1cc(/C=C2/SC(=S)N(CC(=O)O)C2=O)ccc1OCc1ccc([N+](=O)[O-])cc1,105,-78,/,/
CCOC(=O)c1ccccc1NC(=O)Cn1c(=O)n(CCC(=O)N2CCc3ccccc3C2)c(=O)c2ccccc21,99,2,107,95
O=C(Nc1ccc(N2CCCS2(=O)=O)cc1)c1cccc(Br)c1,99,-19,/,/
COC(=O)c1cc(NS(=O)(=O)c2ccc3c(c2)OCCO3)ccc1Cl,100,-33,83,90
CCCCOc1ccc(C2=N/C(=C\c3ccc(OC)c(OC(C)=O)c3)C(=O)O2)cc1,102,-33,/,/
CN=C(NO)C(=O)c1ccc(Cl)cc1,100,-2,88,87
N#CCSc1nc2cc(Cl)ccc2c(=O)n1Cc1ccccc1,/,-8,100,95
CCC1CC(C)(c2csc(Nc3ccccc3)n2)OC1=O (configuration not stated),105,-11,101,83
CCCC(=O)NCCc1nc2ccccc2n1Cc1c(F)cccc1Cl,105,-14,94,87
CCN(CC)S(=O)(=O)c1ccc2oc(=S)n(CN3CCCCC3)c2c1,/,-1,79,98
COc1ccc(C(=O)COC(=O)CN2C(=O)C3CC=CCC3C2=O)cc1 (configuration not stated),105,/,69,98
CN(Cc1ccccc1)C(=O)COC(=O)c1ccc(S(=O)(=O)N(C)C)cc1,/,-14,93,99
Cc1ccc2cc(-c3noc(CCCC(=O)Nc4ccc(F)cc4)n3)c(=O)[nH]c2c1,109,-41,/,/
COc1ccc(N(CC(=O)Nc2ccc(S(=O)(=O)N3CCCCC3)cc2)S(=O)(=O)c2ccccc2)c(OC)c1,101,-8,/,/
CCOc1cccc2cc(-c3nc(-c4ccccc4C)no3)c(=O)oc12,105,/,114,96
Cc1cc(OCC(=O)Nc2ccc3c(c2)OCO3)c2ccccc2n1,99,-6,93,88
COc1ccc(-c2oc3ncn4nc(-c5ccccc5OC)nc4c3c2-c2ccc(OC)cc2)cc1,112,-12,100,101
S=c1[nH]nc(C2(c3ccccc3)CCCC2)o1,/,-11,125,78
CCOc1ccc(CNC(=O)c2ccc3c(c2)nc2n3CCOC2)cc1,106,/,81,93
CN(C)S(=O)(=O)c1ccc(C(=O)OCC(=O)C(C)(C)C)cc1,/,-10,88,96
CCc1ccc(NC(=O)Nc2cc(C(=O)NCc3ccc(C)cc3)ccc2N2CCCC2)cc1,106,6,/,/
CC1Sc2ccc(C(=O)N(C)Cc3cccnc3)cc2NC1=O (configuration not stated),/,-33,82,95
CC(C)(C)NC(=O)CN1CCN(C(=S)Nc2ccccc2F)CC1,/,-14,93,93
Cc1ccc(NC(=O)C2CCCN2S(=O)(=O)c2cccc3nsnc23)c(C)c1 (configuration not stated),104,-122,98,86
COc1ccccc1CNC(=O)c1ccc(N2CCCC2)c(NC(=O)NCCC(C)C)c1,102,/,103,89
Cc1ccc(Cl)c(Nc2ccccc2C(=O)O)c1Cl,106,-9&-6&-6&-6&-26&-53&-3,93,75
O=C(NCCN1CCCCCC1)c1ccc2c(c1)ncn2C1CCCCC1,105,/,104,91
O=S(=O)(Nc1ccc(-c2ccc(N3CCCCCC3)nn2)cc1)c1ccc(C(F)(F)F)cc1,107,/,113,91
c1coc(CCC2=NCCn3cccc32)c1,/,-6,114,78
COc1ccc2occ(CC(=O)Nc3ccc(S(=O)(=O)Nc4nccc(C)n4)cc3)c2c1,102,-21,71,83
C=CCN(CC=C)C(=O)c1ccc(NC(=O)CC)cc1,88,-21,92,102
CC(Oc1ccccc1)C(=O)Nc1ccc(C(=O)OCc2cc(=O)n3nc(C(C)C)sc3n2)cc1 (configuration not stated),103,/,84,89
O=C(O)CCCn1c(C(F)(F)F)nc2ccccc21,105,12,105,82
CN(C)c1ccc(/C=N/NC(=O)C2=CCN(Cc3ccccc3)CC2)cc1,98,-57,88,97
Cc1cc(C(=O)COC(=O)c2ccc3c(c2)NC(=O)CS3)c(C)n1Cc1cccs1,/,-23,82,76
CN(C)c1ncc(C(=O)Nc2ccc(F)c(F)c2)cn1,104,-21,/,/
O=C1Cc2cc(S(=O)(=O)NC3CCCC3)ccc2N1,101,/,78,84
N#Cc1c(C(F)(F)F)cc(-c2cccs2)nc1SCC(=O)Nc1ccccc1F,112,9,99,107
Cc1ccc(NC(=O)/C(C#N)=C/c2ccc(C)o2)cc1,105,-65,99,86
CC1CCCCN1S(=O)(=O)c1ccc(C(=O)Nc2nnc(-c3cccs3)o2)cc1 (configuration not stated),105,5,2.0*,1.8*
COc1ccc(C2CC(=O)C3=C(C2)Nc2ccccc2NC3c2cc(Cl)c(O)c(OC)c2)cc1 (configuration not stated),105,-9,/,/
COC(=O)c1ccc2c(c1)CN(c1ccc(F)cc1)C(=O)CO2,106,14,/,/
O=C(Nc1ccc(Cl)cc1)c1ccc(-n2nc(OCc3ccc(Cl)cc3)ccc2=O)cc1,106,-6,/,/

# Some of these compounds in order of length of the SMILES, smallest number first.
SMILES,GIV-Gai inh,HCMV NEC inh,Sa growth inh,Sa growth inh second temp
c1coc(CCC2=NCCn3cccc32)c1,/,-6,114,78
S=c1[nH]nc(C2(c3ccccc3)CCCC2)o1,/,-11,125,78
Cc1ccc(Cl)c(Nc2ccccc2C(=O)O)c1Cl,106,-9&-6&-6&-6&-26&-53&-3,93,75
C=CCN(CC=C)C(=O)c1ccc(NC(=O)CC)cc1,88,-21,92,102
CN(C)c1ncc(C(=O)Nc2ccc(F)c(F)c2)cn1,104,-21,/,/
Cc1ccc(NC(=O)/C(C#N)=C/c2ccc(C)o2)cc1,105,-65,99,86
O=C(NCCN1CCCCCC1)c1ccc2c(c1)ncn2C1CCCCC1,105,/,104,91
CCOc1ccc(CNC(=O)c2ccc3c(c2)nc2n3CCOC2)cc1,106,/,81,93
CCOc1cccc2cc(-c3nc(-c4ccccc4C)no3)c(=O)oc12,105,/,114,96
CN(C)S(=O)(=O)c1ccc(C(=O)OCC(=O)C(C)(C)C)cc1,/,-10,88,96
CN(C)c1ccc(/C=N/NC(=O)C2=CCN(Cc3ccccc3)CC2)cc1,98,-57,88,97
N#Cc1c(C(F)(F)F)cc(-c2cccs2)nc1SCC(=O)Nc1ccccc1F,112,9,99,107
Cc1ccc(NC(=O)C2CCCN2S(=O)(=O)c2cccc3nsnc23)c(C)c1 (configuration not stated),104,-122,98,86
COc1ccccc1CNC(=O)c1ccc(N2CCCC2)c(NC(=O)NCCC(C)C)c1,102,/,103,89
CC1CCCCN1S(=O)(=O)c1ccc(C(=O)Nc2nnc(-c3cccs3)o2)cc1 (configuration not stated),105,5,2.0*,1.8*
Cc1cc(C(=O)COC(=O)c2ccc3c(c2)NC(=O)CS3)c(C)n1Cc1cccs1,/,-23,82,76
Cc1ccc2cc(-c3noc(CCCC(=O)Nc4ccc(F)cc4)n3)c(=O)[nH]c2c1,109,-41,/,/
O=C(Nc1ccc(Cl)cc1)c1ccc(-n2nc(OCc3ccc(Cl)cc3)ccc2=O)cc1,106,-6,/,/
COc1ccc(-c2oc3ncn4nc(-c5ccccc5OC)nc4c3c2-c2ccc(OC)cc2)cc1,112,-12,100,101
O=S(=O)(Nc1ccc(-c2ccc(N3CCCCCC3)nn2)cc1)c1ccc(C(F)(F)F)cc1,107,/,113,91
COc1ccc(C2CC(=O)C3=C(C2)Nc2ccccc2NC3c2cc(Cl)c(O)c(OC)c2)cc1 (configuration not stated),105,-9,/,/
CC(Oc1ccccc1)C(=O)Nc1ccc(C(=O)OCc2cc(=O)n3nc(C(C)C)sc3n2)cc1 (configuration not stated),103,/,84,89
COc1ccc(N(CC(=O)Nc2ccc(S(=O)(=O)N3CCCCC3)cc2)S(=O)(=O)c2ccccc2)c(OC)c1,101,-8,/,/

# Further structures:
SMILES,GIV-Gai inh,HCMV NEC inh,Sa growth inh,Sa growth inh second temp
CCN(CC)c1ccc2cc(C(N)=O)c(=Nc3ccc(F)cc3)oc2c1,145,/,105,89
C=CCn1c(-c2ccccc2Cl)nn(CCC#N)c1=S,/,-16,97,91
O=C(CSc1ccccc1C(=O)O)c1ccccc1,103,20,132,88
COc1ccc(S(=O)(=O)NC(CC(=O)O)C(C)C)cc1 (configuration not stated),104,/,95,82
Cc1nn(C)c(C)c1CNC(=O)CCCn1c(=O)c2cccn2c2ccc(Br)cc21,105,-4,/,/
CN(Cc1cccs1)C(=O)CSc1nnc(-c2ccccc2)n1-c1ccccc1,/,-20,95,93
CCN(CC)S(=O)(=O)c1ccc2c(c1)N(CC(=O)Nc1c(C)cccc1C)C(=O)C1CCCN21 (configuration not stated),109,-29,100,89
O=C(NN=C1CCCC1)c1ccccc1O,98,5,88,86
O=C(c1ccccc1)c1ccc(C(=O)O)c(C(=O)O)c1,99,-1,66,82
CCOc1ccc(CNC(=O)C2Cc3cc(S(=O)(=O)N4CCCCCC4)ccc3N2C(C)=O)cc1 (configuration not stated),100,-35,101,87
O=C(Nc1ccccc1)Nc1ccccc1C(=O)NCC1CC1,99,-23,110,86
Cc1cc(S(=O)(=O)N2CCN(Cc3noc(CCC(=O)N4CCCCC4)n3)CC2)ccc1F,104,/,95,87
N#Cc1cn(CC(=O)N2CCc3ccccc3C2)c2ccccc12,/,-7,129,90
CCC(=O)N1CCc2cc(S(=O)(=O)CCC(=O)NCc3ccc(OC)cc3)ccc21,111,-6,87,101
CN(C)C(=O)CSc1ccc(-c2ccc(F)cc2)nn1,97,-11,105,94
COCCn1c(C)nnc1SCC1CCCO1 (configuration not stated),105,-11,102,82
O=C1CC(c2nc3ccccc3n2Cc2ccc(Br)cc2)CN1Cc1ccccc1 (configuration not stated),103,-12,/,/
O=C(COc1ccccn1)N1CCN(c2ccccc2)CC1,/,-13,98,89
O=C(O)C12C3CCC4C5C3C1C5(C(=O)O)C42 (configuration not stated),100,-20,96,93
O=C(c1ccco1)c1cn(CC(=O)N2CCc3ccccc32)c2ccccc12,104,-2,97,75
O=S(=O)(NC1CCCc2ccccc21)c1ccc2c(c1)OCCO2 (configuration not stated),/,-22,69,61
O=C(NCCN1CCCC1)c1ccc(Cn2c(SCc3ccc(Cl)cc3)nc3ccncc32)cc1,106,-8,/,/
Cc1nnc(C)c2c(C)n(-c3ccc4c(c3)OCO4)c(C)c12,111,-1,98,100
COc1ccc(-c2cc3ncc4c(n3n2)-c2cc(Cl)ccc2OC4)cc1,95,8,/,/
Cc1csc(=N)n1CC(=O)N1CCc2ccccc21,/,-11,83,84
COC(=O)c1ccccc1NC(=O)Cn1nnc2sc(-c3ccccc3)cc2c1=O,119&122,-18&4,102,84
CC(=O)Oc1cc2c(C(=O)NCCCN3CCOCC3)c(C)oc2c2ccccc12,102,-19,110,79
